Screening results as filed in PubChem.
Calb biofilm kill: mixtures killing C. albicans biofilm; inhibition, % at 7.6 µM; C. albicans biofilm persisters + clotrimazole, fluorescence viability; primary screen in compound mixtures of four per well; AID 1242; 120,000 compounds, 0.02% hits;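 active = inhibition above 30.3% in the primary screen of four-compound pools, then above 30% when the compound was retested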;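 note: compounds exposed to preformed 24 h biofilms for 48 h; the number belongs to the whole pool; some results filed as inactive read as strong as hits; inactives centre near 12; 0% = biofilm with clotrimazole alone and 100% = kill control; retested singly at about 60 µM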
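Probe or stimulus – Clotrimazole 50 µg/mL co-treatment · System – C. albicans biofilms · Schedule – 24 h biofilm formation, then 48 h compound exposure, 37 °C · Evaluation – percent inhibition of biofilm viability · Technique – 2-h Alamar Blue fluorescence, 535/590 nm excitation/emission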
* marks the source's active call; other numbers are inactive results. Not all compounds are listed, so the mix of outcomes need not match the whole.

SMILES | Calb biofilm kill
CCN(CC)c1ccc(/C=N/N(c2ccccc2)c2ccccc2)c(O)c1 | 17
Cc1cccc(CSc2nnc(N)n2-c2ccccc2)c1 | 7
O=C(Nc1nccs1)C(F)(F)C(F)(F)C(F)(F)C(=O)Nc1nccs1 | 13
Cc1ccc(Sc2ccc(N)cn2)cc1 | 11
CN(Cc1ccccc1)C(=O)COC(=O)CCNC(=O)c1ccccc1Cl | 1
COc1ccc(C2CC(c3ccccc3)=NN2C(=O)COC(=O)c2cccnc2Cl)cc1 (configuration not stated) | 6
Cc1ccc(OCCOc2cccc(Br)c2)c([N+](=O)[O-])n1 | 17
O=C1c2cccc3cc([N+](=O)[O-])cc(c23)C(=O)N1CCN1CCCC1 | 22
O=[N+]([O-])c1cccnc1SCc1c(F)cccc1Cl | 15
COc1ccc(N=Cc2cc(Cl)ccc2O)cc1Cl | 8
Cc1ccc(CSc2nnc(-c3cccc(S(=O)(=O)N4CCOCC4)c3)n2C2CCCC2)cc1 | -5
CCOC(=O)N1CCC(NS(=O)(=O)c2ccccc2)CC1 | 1
O=C(NCc1ccncc1)c1nc(-c2cccs2)no1 | -1
CN(c1ccccc1)C1CCCCC1NS(=O)(=O)c1ccc(Cl)cc1 (configuration not stated) | 10
CCOc1cc(C)c(Cl)cc1S(=O)(=O)NCCOC | -1
Cc1nn(C)c(Cl)c1CN1CCCC(CO)(Cc2cccc(Cl)c2)C1 (configuration not stated) | -8
CC(NC(=O)Nc1ccccc1)C(c1ccccc1)N1CCOCC1 (configuration not stated) | 11
O=C(NC1CCS(=O)(=O)C1)C1C2CC3CC(C2)CC1C3 (configuration not stated) | -13
CCOc1ccc(C(=O)Nn2cnnc2)cc1OCC | 1
CCNC(=O)c1ccc(C2SCC(=O)N2CCc2ccccc2)cc1 (configuration not stated) | 12
Cn1cccc1/C=N/NC(N)=S | 13
CCn1ccnc1CN(C)Cc1cn(-c2cccc(C)c2)nc1-c1cccc(F)c1 | 5
O=[N+]([O-])c1ccc(N=NNc2ccccc2)cc1 | 12
COc1ccc(NC(=O)COC(=O)c2ccc(F)cc2F)cc1 | 19
Cc1ccc(N(CC(=O)NCCSCc2ccco2)S(=O)(=O)c2ccc(F)cc2)cc1 | 7
COc1ccc(OCC(=O)N/N=C(\C)CC(=O)Nc2cccc([N+](=O)[O-])c2)cc1 | 12
COc1ccc(N2CCN(C(=O)C3=NNC(=O)CC3)CC2)cc1 | 4
Cc1ccc(C(=O)NC2CC3CCCC(C2)N3C(=S)NCc2ccco2)cc1 (configuration not stated) | -6
CCOC(=O)N1CCN(C(=O)c2ccc(Cn3c(=S)[nH]c4cc(OCC)c(OCC)cc4c3=O)cc2)CC1 | 4
CCCn1c(=O)[nH]c(=O)c2c1nc(-c1ccc(OC)c(Br)c1)n2CCOC | 11
COc1ccc(N(CC(=O)NCCC2=CCCCC2)S(=O)(=O)c2ccccc2)cc1OC | 7
Cc1cc(C(=O)COC(=O)c2ccncc2)c(C)n1CCc1ccc(F)cc1 | 17
COc1ccccc1N1CCN(C(CNS(C)(=O)=O)c2cccnc2)CC1 (configuration not stated) | -8
Nc1nc(N)c2ncc(C(=O)CCc3ccccc3)nc2n1 | -2
COc1cccc(CN(C)C(=O)CCc2nnc(-c3ccsc3)o2)c1 | 22
Cc1ccc2c(c1)C(=O)C(=O)N2CC(=O)Nc1ccc(N2CCOCC2)cc1 | 15
CCCc1nc2c([nH]1)C(c1cccnc1)C(C#N)=C(N)O2 (configuration not stated) | 18
CCCOc1ccc(C(=O)ON=C2CCN(C)CC2)cc1 | 17
COc1cc(NC(=S)N(C)CCC#N)c(OC)cc1Cl | 17
O/N=C/c1ccc2cccc(O)c2n1 | -1
CC(=O)Nc1ccc(S(=O)(=O)Nc2nc3ccccc3nc2Nc2ccccc2)cc1 | 20
Cc1cc(C)c2nc(/N=C(\N)NC(=O)Nc3ccccc3)nc(C)c2c1 | 19
C/C(=N\Nc1ccc([N+](=O)[O-])cc1[N+](=O)[O-])C(C)(C)C(C(=O)O)C(=O)O | 1
Cc1cccc(C(=O)NC(=S)NNC(=O)c2ccc(Cl)cc2)c1 | 11
CCOC(=O)c1cc(-c2c(Cl)cccc2Cl)no1 | 14
COc1ccccc1NS(=O)(=O)c1cc(NC(=O)c2cccs2)ccc1N1CCOCC1 | 13
COc1ccc(CN(Cc2ccc(C(=O)O)cc2)C(=S)Nc2ccccc2Cl)cc1OC | 7
CCCOc1ccc(CC2CCC(=O)NC2=O)cc1 (configuration not stated) | 18
COc1ccc(C(=O)c2sc3nc(-c4ccccc4)ccc3c2N)cc1 | 13
S=C1NC[C@H](CC2CCCCC2)N1CC1CCCCC1 | 20
CC1CCN(c2c(NCC3CCC(C(=O)NC4CCCCCC4)CC3)c(=O)c2=O)CC1 (configuration not stated) | 15
O=C(CCn1c(=O)[nH]c2ccccc2c1=O)NCCSCc1ccccc1 | 12
CCCCCOc1ccc(NC(=O)C2OC3OC(C)(C)OC3C3OC(C)(C)OC23)cc1 (configuration not stated) | 0
NC(=NCc1ccc2c(c1)OCO2)NC(=O)c1ccccc1 | 0
CCOC(=O)C1CCCN(C(=O)c2cccc(S(=O)(=O)N3CC(C)OC(C)C3)c2)C1 (configuration not stated) | 0
c1cnn(-c2cncc(-n3cccn3)n2)c1 | 11
CC1CN(Cc2nnc(-c3ccccc3)o2)CC(C)O1 (configuration not stated) | -1
O=C(Nc1nc(-c2cccnc2)cs1)c1ccc([N+](=O)[O-])cc1 | 19
CN1CCN(CC(O)COCCOc2ccc(Br)cc2)CC1 (configuration not stated) | 8
Cc1nc(-c2ccc(Cl)cc2)sc1C1(C)CC(c2ccc([N+](=O)[O-])cc2)=NO1 (configuration not stated) | 3

The listing continues:
SMILES | Calb biofilm kill
Cn1c(=O)[nH]c(=O)c2c1nc(Br)n2C/C=N/NC(=O)c1ccccc1 | 10
COc1ccccc1NC(=O)CSCc1ccc([N+](=O)[O-])cc1 | 5
COc1ccccc1NC(=O)N1C2CCCC1CC(NC(=O)c1ccccc1)C2 (configuration not stated) | 11
C=CCn1c(SCC(=O)NC2CCCCC2)nnc1-c1ccc(OC)cc1 | 19
CC1CCCC(C)N1S(=O)(=O)c1ccc(S(=O)(=O)NCc2ccccc2)cc1 (configuration not stated) | 19
O=Cc1cn(CC(=O)Nc2ccc(F)cc2)c2ccccc12 | -7
Cc1ccc(NC(=O)CN2C(=O)NC3(CCc4ccccc43)C2=O)cc1 (configuration not stated) | 13
CCCCN(CC)C(=O)c1ccc(Cl)cc1 | 12
Nc1nc(Cl)cc(Nc2ccccc2Cl)n1 | 16
COCCCNc1ncnc2ccc(C)cc12 | 16
CNc1ccc(C2(O)C(=O)c3ccccc3C2=O)cc1 | 8
O=C(Nc1ccccc1F)c1ccc(CSc2ccccc2)o1 | 17
C[C@H]1CC[C@@]2(O[C@@H](CCO)C[C@@H](O)[C@@H]2O)O1 | 27
CCN1CCN(C(=O)c2sc3ncnc(N4CCc5ccccc5C4)c3c2C)CC1 | 19
O=C(/C=C/c1ccccc1[N+](=O)[O-])NCc1ccccc1Cl | 14
COc1ccc(-c2cc(C(=O)N3CCN(c4ncccn4)CC3)c3ccccc3n2)c(OC)c1 | 3
[O-][n+]1c2c(nn1-c1ccc(Cl)c(Cl)c1)-c1nonc1CC2 | 12
O=C(COC(=O)c1cccc(NS(=O)(=O)/C=C/c2ccccc2)c1)Nc1ccccc1OC(F)F | 4
Cc1ccc(S(=O)(=O)n2c3ccc(Cl)cc3c3nc(C)sc32)cc1 | 18
COc1ccc([C@H]2Oc3cc(O)cc(O)c3C(=O)C2[C@@H]2C(=O)c3c(O)cc(O)cc3O[C@@H]2c2ccc(OC)cc2)cc1 (some centres not stated) | 11
COc1ccccc1OCC(=O)Nc1ccc2c(c1)n(C)c(=O)n2C | 20
O=C(Nc1ccncc1)c1ccc(-c2ccccc2)cc1 | 10
Cc1cccc(COCC(Cc2ccccc2)N2CCN(C(=O)c3ccc(C(F)(F)F)cc3)CCC2=O)c1 (configuration not stated) | -4
N#Cc1cc2c(nc1S(=O)(=O)Cc1ccccc1)CCCC2 | 7
O=C(COC(=O)/C=C/c1ccccc1)Nc1cccc(Oc2ccccc2)c1 | -1
Cc1cc(C)nc(NC(=O)c2ccc(Cl)cc2)n1 | 4
O=C(NC(=S)Nc1ccc(S(=O)(=O)Nc2nccs2)cc1)c1ccc(F)c(F)c1 | 9
Cc1c(Cl)c([N+](=O)[O-])nn1CC(=O)N1CCCC1 | 10
COc1ccc(-c2nnn(CC(=O)N(CCN3CCOCC3)C(C(=O)NC3CCCC3)c3ccco3)n2)cc1 (configuration not stated) | 15
CSc1ccccc1NC(=O)c1ccccc1 | 6
O=C(NCCN1CCCOC1=O)C(=O)NCCN1CCCOC1=O | 9
O=C(Nc1ccccc1)Nc1ccccc1NS(=O)(=O)c1cccs1 | 7
CCCc1cc(C(=O)Nc2ccn(Cc3ccc(C)cc3)n2)no1 | 10
O=C(c1ccccc1[N+](=O)[O-])N1CCCN(C(=O)c2ccccc2[N+](=O)[O-])CC1 | 11
O=C(NNc1ncnc2ccccc12)c1cccc(Cl)c1 | 30
Cc1oc2ccc(OC(=O)N3CCOCC3)cc2c1C(=O)OC(C)C | 3
Cc1cccc(OCCN2C(=O)C(=O)c3cccc(C)c32)c1 | 15
Cc1ccc2oc(=O)c3cnn(CC(=O)Nc4cc(-c5cccc(F)c5)no4)c3c2c1 | 8
Cc1c(Cl)cccc1NC(=S)N1CCN(S(=O)(=O)c2cccs2)CC1 | 29
O=C(c1ccc2c(=O)n3c(nc2c1)CCCCC3)N1CCN(c2ccc(F)cc2)CC1 | 10
CCOC(=O)NC(=O)COC(=O)c1ccc(Sc2ncn[nH]2)c([N+](=O)[O-])c1 | 17
NC(=O)CSc1nc2cc([N+](=O)[O-])ccc2n1-c1cccc(C(F)(F)F)c1 | 11
Cc1nnnn1/C(=C\c1ccccc1)C(=O)OCC(=O)NC(C)(C)C | 21
Cc1ccc(C(=O)Nc2ccc(C(=O)N/N=C/c3ccncc3)cc2)cc1 | 5
Cc1ccccc1NC(=O)/C(=C/c1cccs1)NC(=O)c1ccco1 | -4
O=C(NCCO)/C(=C\c1ccc(Br)cc1)NC(=O)c1cccs1 | 10
CCCn1nnc(NC(=S)NC(=O)/C=C/c2ccc(Cl)cc2)n1 | 23
Cn1c(N)c(S(=O)(=O)N2CCN(c3ccccc3)CC2)c(=O)n(C)c1=O | 18
Cc1cc(C)n(-c2ccccc2C#N)n1 | 2
O=C(NC1CCCc2ccccc21)c1ccccc1Cl (configuration not stated) | 16
O=C(/C=C/c1ccc(-c2ccccc2[N+](=O)[O-])o1)c1ccccc1 | 13
COc1ccccc1CNC(=O)Cc1cc(=O)[nH]c(=O)[nH]1 | 0
COc1ccc(S(=O)(=O)N2c3ccccc3OCC2C(C)(C)C)cc1 (configuration not stated) | 17
Cc1[nH]n(-c2ccccc2)c(=O)c1N=Nc1ccccc1 | 3
O=C(O)CCSc1nnc(SCC(=O)NCC(F)(F)F)s1 | 7
Cn1nc(C(=O)Nc2ccc(S(=O)(=O)Nc3ncccn3)cc2)ccc1=O | 10
Cc1ccc(C(=O)O)cc1N=Cc1cc(Br)cc(Br)c1O | 13
CN(C)C(=O)CN1CCN(c2nc3nonc3nc2N2CCCCC2)CC1 | 2
Cc1cccc(CNc2ccc(C(CC(N)=O)NC(=O)c3cccc(Br)c3)cc2[N+](=O)[O-])c1 (configuration not stated) | 15
O=C(c1nnc(-c2ccc(Cl)cc2)o1)C1CCCC1 | 14

Remaining list, next part.
SMILES | Calb biofilm kill
CCOc1ccc(C(=O)NC(C)(C)CC)cc1 | 7
O=C(c1cccs1)N1CCN(Cc2ccccn2)CC1 | -38
N#Cc1c(Cl)cccc1N1CCCC1 | 12
CCOC(=O)C1=C(O)/C(=C/c2ccc(OCC(=O)O)c(OCC)c2)SC1=Nc1ccc(C)cc1 | 7
CSc1nc2ccc(NS(=O)(=O)c3cccc(Cl)c3Cl)cc2s1 | 2
C/C(=N\NC(=O)c1ccn[nH]1)c1cn(C)nc1C | 14
C/C(=N\N1CCN(Cc2ccccc2)CC1)c1ccco1 | 54
CCc1nnc(NC(=O)CCC(=O)NCc2ccc(OC)cc2)s1 | 17
CCn1c(=S)[nH]c2cc(Cl)ccc21 | 15
C/C(=N\NC(=O)Cn1nc(C)c(Br)c1C)c1cccs1 | 23
Oc1c(Br)cc(Br)cc1C=Nc1ccc2c(c1)OCCO2 | 18
Cc1nc2sc3c(c2c(=O)[nH]1)CCCCC3 | 15
COc1ccc(OCC(=O)N/N=C(\C)c2ccc(-n3ccnc3)cc2)cc1 | 8
COc1ccc(-c2ccc(C#N)c(SCC(=O)NC3CC3)n2)cc1OC | 16
CCOC(=O)C(=O)N1CCN(c2ccccc2OC)CC1 | 8
